# Screening data: PubChem BioAssay, National Center for Advancing Translational Sciences (NCATS)
# CtBP-E1A inh: qHTS Assay for Inhibitors of the CtBP/E1A Interaction | AlphaScreen GST-E1A/His-CtBP binding, 1536-well; hits give low values; control for the full effect not named in the record | AID 651724, 2012 | CtBP / adenovirus E1A interaction (AlphaScreen) | actives 0.49% (n = 340,000) | activity change, % (no concentration beside the values); in the data active means activity change below about -65%; inconclusive means about -30% to -65%; inactive means above about -30%; also: % is scaled to controls: 0 for no effect and ±100 for the full control effect; compound concentration not given in the record
#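 Protein mix (5X: 125 nM each GST-E1A, His-CtBP) was incubated with pinned compound 2 h at 37 deg C in dark, in 50 mM Tris pH 8.0 buffer with 300 mM NaCl. Glutathione donor and nickel acceptor beads followed; AlphaScreen signal read after 1 h.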
# TRPV1 potentiator: HTS Assay for Compounds that Act as Potentiators of the Vanilloid Receptor 1 | TRPV1-expressing cells, Fluo-8 calcium influx, capsaicin EC20 potentiation; host cell line not named in the record; control for the full effect not named in the record | Transient receptor potential cation channel subfamily V member 1 (Homo sapiens), Q8NER1 | potentiation, % at 8.33 µM | actives 0.02% (n = 320,000); active means potentiation above 80%; inconclusive means 30% to 80%; inactive means below 30%; also: 0% is about no effect
# Target sequence (Q8NER1 whole entry, looked up): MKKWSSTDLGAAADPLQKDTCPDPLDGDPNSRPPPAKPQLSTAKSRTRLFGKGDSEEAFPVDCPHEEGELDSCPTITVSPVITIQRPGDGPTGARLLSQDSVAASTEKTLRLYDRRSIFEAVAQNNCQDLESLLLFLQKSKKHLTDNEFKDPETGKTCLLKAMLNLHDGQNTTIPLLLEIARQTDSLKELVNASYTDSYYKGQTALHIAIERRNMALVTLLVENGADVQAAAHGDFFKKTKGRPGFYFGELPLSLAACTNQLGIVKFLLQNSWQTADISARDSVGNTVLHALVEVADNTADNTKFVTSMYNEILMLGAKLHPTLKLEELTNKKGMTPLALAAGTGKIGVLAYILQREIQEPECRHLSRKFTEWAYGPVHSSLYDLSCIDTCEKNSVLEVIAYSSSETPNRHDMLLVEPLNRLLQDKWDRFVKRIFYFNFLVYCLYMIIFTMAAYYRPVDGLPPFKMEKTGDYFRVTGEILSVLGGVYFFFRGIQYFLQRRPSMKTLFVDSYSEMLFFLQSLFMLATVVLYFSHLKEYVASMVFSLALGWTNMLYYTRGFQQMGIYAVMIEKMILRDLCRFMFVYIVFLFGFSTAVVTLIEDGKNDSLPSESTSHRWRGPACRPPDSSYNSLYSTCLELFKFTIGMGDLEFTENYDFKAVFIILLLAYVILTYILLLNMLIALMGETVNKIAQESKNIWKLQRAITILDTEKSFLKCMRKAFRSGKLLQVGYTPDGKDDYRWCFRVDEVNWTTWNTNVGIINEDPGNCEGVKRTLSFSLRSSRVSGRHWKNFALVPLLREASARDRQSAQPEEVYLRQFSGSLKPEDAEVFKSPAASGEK
#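 Fluo-8 calcium influx in TRPV1-expressing cells, kinetic read (ex 480/em 520 nm). Compound added and read 3 min for agonist activity, followed by capsaicin at EC20 final and 2 min further read for enhancement.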
# PINK1 modulator: A Quantitative High throughput Screen to Identify Chemical Modulators of PINK1 Expression; PINK1 immunofluorescence, high-content cytometry, 24 h; Potency, µM (doses to about 76.6 µM), without a hit: top-dose activation (PINK1 increase), actives largely listed as activators; actives 0.2% (n = 410,000); AID 624263, 2012; active = well fitted activation curve with a large enough effect; inconclusive = small, poorly fitted or top-dose-only effect; inactive = flat fitted curve, though single readings scatter; cell line not stated here;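 also: potency is read from the fitted curve at half-maximal effect; % of control where 0% means no effect; nearly all actives have a fitted effect of over 65% in size; a mitochondrial uncoupler was the plate control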
#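 PINK1 protein level read as immunofluorescence by microplate cytometer in a fixed, stained stable cell line after 24 h exposure to five compound concentrations, with CCCP as control.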
# D2 agonist: Beta-Arrestin HTS for Positive Allosteric Modulators of the Human D2 Dopamine Receptor: Agonists; AID 624465, 2012; DiscoveRx PathHunter D2 beta-arrestin, luminescence, 90 min; 100% = 57 uM dopamine signal; activation, % (no concentration beside the values); actives 0.084% (n = 360,000); in the data active = activation above about 40%; inconclusive = about 15% to 40%; inactive = below about 15%; also: compound concentration not given in the record; the text of the record calls up to 30% inactive
#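 DiscoveRx PathHunter D2 beta-arrestin cells (2,100/well) attached overnight, then compound-stimulated 90 min at 37 C in HBSS/10 mM HEPES/0.1% Tween-20 buffer; beta-galactosidase complementation read by luminescence after 1 h at ambient temperature. Dopamine 57 uM final (EC100) as control.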
# D2 PAM: Beta-Arrestin HTS for Positive Allosteric Modulators of the Human D2 Dopamine Receptor: Potentiators; DiscoveRx D2 beta-arrestin cells, luminescence, 90 min; 100% = 57 uM dopamine signal; D(2) dopamine receptor (Homo sapiens), P14416; actives 0.23% (n = 360,000); AID 624464, 2012; potentiation, % (concentration not given with the values); active = potentiation of 50% or more; inconclusive = 30% to 50%; inactive = 30% or less;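 also: compound concentration not given in the record; tested on top of an EC20 dose of dopamine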
#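 PathHunter D2 cells, attached overnight at 37 deg C, received compound in DMSO plus dopamine at EC20 (50 nM final) for 90 min at 37 deg C. Beta-arrestin recruitment was read as luminescence after 1 h with detection reagent at ambient temperature.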
# Six1-Eya2 blk: qHTS Assay for Inhibitors of the Six1/Eya2 Interaction. AlphaScreen GST-Six1/His-Eya2 binding, biochemical; hits give low values; control for the full effect not named in the record. activity change, % (concentration not given with the values). actives 0.56% (n = 360,000); in the data active = activity change below about -65%; inconclusive = about -30% to -65%; inactive = above about -30%; also: % is scaled to controls: 0 for no effect and ±100 for the full control effect
#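 AlphaScreen luminescence read after one hour at 37 °C in darkness. Pin-transferred compounds met GST-Six1 and His-Eya2 protein (5X stock 250 nM/500 nM) plus glutathione donor and Ni-chelate acceptor beads (5X, 50 ug/mL).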
# Sfp inh: qHTS Assay for Inhibitors of Bacillus subtilis Sfp phosphopantetheinyl transferase (PPTase). AID 1490, 2009. actives 3.5% (n = 310,000). 4'-phosphopantetheinyl transferase ffp (Bacillus subtilis), Q9F4F7. Biochemical Sfp PPTase activity, qHTS. Potency, µM, for the others: max response, negative = inhibition, usual class: inhibitors; active = well fitted inhibition curve with a large enough effect; inconclusive = small, poorly fitted or top-dose-only effect, or another doubt; inactive = no such curve, though single readings can be large or run the other way;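 also: the enzyme is Sfp with the accession as filed and its product quenches rhodamine fluorescence; potency is read from the fitted curve at half-maximal effect; 0% = enzyme reaction without inhibitor and -100% = no enzyme wells; top concentration of the series not given in the record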
#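 After 15 min at room temperature with compound, 15 nM Sfp received 5 uM rhodamine-CoA plus 12.5 uM BHQ-2-ybbR (50 mM Hepes pH 7.6, 10 mM MgCl2). Rate came from the fluorescence difference over 30 min, ex 525/em 598 nm.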
# * hit, by the source's call; ? = inconclusive; . = no result given; & = joins results of further samples; [ ] = dose if it differs, or a comment.
molecule | CtBP-E1A inh | TRPV1 potentiator | PINK1 modulator | D2 agonist | D2 PAM | Six1-Eya2 blk | Sfp inh
CC(CN1CCN(C)CC1)OC(=O)c1ccc(Cl)cc1Cl (stereo not given) | -10 | -10 | -3.4%[38.3 µM] | -1.6 | -17 | -7 | -1%
NS(=O)(=O)c1ccc(NC(=S)NNC(=O)c2ccc(Br)o2)cc1 | 0 | -7 | 2.0% | -12 | -15 | 0 | 25%
Cc1nc([N+](=O)[O-])cn1C(C)C | -2 | -16 | 0.0% | 0.7 | -6 | 6 | 18%
CCn1cc(C(=O)NCc2ccccn2)c(=O)c2cc(F)c(N3CCN(C)CC3)cc21 | 3 | -5 | 1.3% | -2.2 | 8 | 0 | 20%
CCOC(=O)C1=C(C)N(Cc2ccc(C(=O)O)cc2)C(=O)NC1c1ccc([N+](=O)[O-])cc1 (stereo not given) | 4 | 10 | 1.0% | -3.6 | -1 | 5 | -13%
COc1cc(OC)cc(-c2c(-c3cccs3)c3cc(-c4ccc5[nH]ccc5c4)ccc3n2C)c1 | . | 1 | 4.6% | 1.1 | 23 | -1 | .
O=C1/C(=C\Nc2ccc(Cl)cc2)CCN1c1ncccn1 | -13 | -1 | -1.4% | 0.9 | -9 | -7 | 89µM*
CC(C)CNC(C(=O)Nc1ccc([N+](=O)[O-])cc1Br)c1ccccc1 (stereo not given) | . | -7 | 2.1% | -2.8 | -1 | -18 | ?
Cc1ccc(S(=O)(=O)CCC(=O)OCC(=O)NCC(=O)Nc2cccc(C)c2C)cc1 | -3 | 12 | 2.9% | -0.2 | -21 | 1 | 12%
NS(=O)(=O)c1cc(C(=O)O)cc(N2CCCC2)c1Oc1ccccc1 | 4 | 7 | 0.1% | -5.6 | -3 | -3 | 16%
O=C(NCc1ccc(F)cc1)c1ccc(CS(=O)Cc2ccccc2Cl)o1 (stereo not given) | 4 | 4 | 2.4% | -12 | -9 | -2 | 13%
Cc1ccc(SCCNS(C)(=O)=O)cc1 | -1 | 1 | -1.9% | -1.4 | -16 | -3 | 5%
CN1CCCN(C(=O)c2ccccc2Cl)CC1 | 7 | ? | 0.0% | -2.5 | -3 | 7 | 15%
Cc1cccc(NC(=O)CNC(=O)COc2cccnc2[N+](=O)[O-])c1C | . | -1 | 1.9% | 1.2 | -1 | 0 | .
O=C1C2CCCN2C(c2cccc(F)c2)N1c1cccc(Cl)c1 (stereo not given) | 0 | . | -0.3% | 3.9 | -3 | 1 | 24%
O=C(CSc1nc(O)c(Cc2ccccc2)c(=O)[nH]1)N1CCOCC1 | 9 | 2 | 0.6% | -4.4 | -1 | 17 | 15%
COCCN(CC(=O)Nc1cccc(C)c1C)C(=O)c1ccc(-n2cccn2)cc1 | 1 | 1 | 0.7% | -0.9 | -2 | 4 | .
CC(C)C[C@H]1CNC(=O)C(=O)N1CC1CCN(CC2CCC(C)CC2)CC1 (stereo not given in full) | 0 | . | 0.7% | -4.0 | -6 | -1 | .
NS(=O)(=O)c1ccc(CNC(=O)c2cc(-c3cccnc3)nc3ccc(Cl)cc23)cc1 | -6 | 2 | 4.8% | -3.9 | -18 | 2 | -10%
CCOC(=O)c1c(C)c(-c2ccccc2)n(CC(=O)NCCCN(CC)CC)c1C | . | 9 | -0.6% | -6.4 | -18 | -7 | 14%
COc1cc(NS(=O)(=O)c2ccc(N)cc2)nc(OC)n1 | -1 | -3 | 3.5% | -6.3 | -10 | 1 | 15%&7%&14%
Cc1nc2sc3c(c2c(=O)o1)CCCC3 | -2 | 4 | 2.6% | -1.3 | 4 | -6 | 40µM*
O=C(COC(=O)c1ccc2c(=O)n3c(nc2c1)CCC3)Nc1ccccc1F | 0 | -6 | 0.5% | -5.1 | 0 | -11 | -7%
Cc1cc(C)cc(Nc2ncc3c(n2)CCCC3=O)c1 | -2 | -15 | 1.0% | -0.4 | 8 | 12 | 8%
CSc1nsc(SCC(=O)Nc2nc3ccccc3s2)n1 | 2 | 10 | -0.2% | -1.4 | -4 | 0 | 3%
O=C(O)CC1(CC(=O)Nc2cccc(C(F)(F)F)c2)CCCC1 | 9 | 5 | -0.1% | -5.3 | -1 | 6 | 8%
COc1ccccc1C(=O)N/N=C(\C)CC(=O)Nc1ccc(Cl)cn1 | -3 | -9 | 3.8% | -2.7 | -16 | -8 | 18%
O=C1OCc2ccc(NS(=O)(=O)c3ccc(C(F)(F)F)cc3)cc21 | -4 | 10 | 2.5% | -2.6 | -11 | -2 | 11%
CN(C)CCCN(C(=O)CCS(=O)(=O)c1ccccc1)c1nc2cc3c(cc2s1)OCO3 | 9 | 2 | -0.6% | -4.1 | -30 | 3 | -10%
CC(=Nc1cccc(O)c1)c1sc2ccccc2c1O | 6 | ? | -3.2%[38.3 µM] | -0.7 | -2 | 2 | -18%
CC(=O)c1cccc(N2C(=O)CC(N3CCN(S(=O)(=O)c4ccc(Cl)cc4)CC3)C2=O)c1 (stereo not given) | . | -8 | 1.1% | -1.3 | 3 | 2 | .
COc1ccc(C(=O)NC2=C(C#N)CCC2)cc1OC | 12 | 6 | . | -1.1 | -13 | -1 | 6%
O=C(c1ccco1)N(CC1CCCO1)c1nc(-c2ccccc2)cs1 (stereo not given) | -2 | 0 | 5.5%[38.3 µM] | -4.2 | -4 | -2 | -10%
CN(Cc1ccco1)C(=O)c1cc2c(s1)-c1ccc(Cl)cc1S(=O)(=O)C2 | . | 3 | -1.4% | -8.5 | -6 | 2 | 15%
Cc1cc(Cl)ccc1NC(=O)c1ccc2c(c1)CCN2S(C)(=O)=O | . | -14 | 2.3% | 7.3 | -2 | 4 | 5%
Cn1cnc(S(=O)(=O)N2CCc3ccccc32)c1 | 5 | 1 | 0.5% | -0.7 | -8 | 5 | 2%
CCOC(=O)CSc1ccc2ccccc2n1 | 11 | 6 | 3.7% | -3.7 | -12 | 1 | 10%
CCOC(=O)c1ccc(-c2cccc(C(F)(F)F)c2)nc1C | 65 | -23 | -6.1%[38.3 µM] | -2.4 | -14 | 51 | 18%
COc1cc(/C=C/C(=O)N2CCCC2)cc(OC)c1OC | 2 | -8 | -0.4% | 0.8 | -6 | -2 | 21%
CCOC(=O)Cc1csc(NC(=O)CN2CCN(CC)CC2)n1 | -17 | -3 | 0.8% | 2.3 | -5 | 1 | 2%
COc1cccc2[nH]c(C(=O)NCc3ccccc3)cc12 | 4 | 2 | 1.0% | -2.0 | -13 | 1 | 4%
CCN(CC)c1nc2ccccc2c(N)c1-c1ccccc1 | 9 | . | ? | 1.3 | -33 | 14 | 79µM*
OCC1(CO)CC2(C1)CC(CO)(CO)C2 | 14 | . | -0.5% | -2.0 | -11 | 11 | .
COc1ccc(CC2(CO)CCN(Cc3cnn(C)c3)CC2)cc1 | -8 | -3 | -1.2% | 2.1 | -5 | -23 | 16%
Cc1cccc(C)c1Nc1ncnc(N)c1[N+](=O)[O-] | 9 | 16 | 0.9% | -1.6 | -1 | 3 | 14%
CC(=O)N1CCN(S(=O)(=O)c2cccc(C(=O)NC3CCCC(C)C3C)c2)CC1 (stereo not given) | -8 | . | 2.0% | -8.7 | -6 | -2 | .
CCc1cccc2c(C(=O)COC(=O)c3ccccc3)c[nH]c12 | -2 | -2 | 3.6% | 0.7 | -5 | -3 | 7%
COc1ccc(C(=O)Nc2nnc(SCC(=O)NC3CC3)s2)cc1 | 3 | 1 | -0.2% | -2.8 | -6 | 1 | 17%
Cc1ccc(C(=O)Nc2ccc(N3CCOCC3)cc2)cc1S(=O)(=O)N1CCCCC1 | -5 | 2 | 1.1% | 14 | 1 | -11 | .
CCC(Cc1ccccc1)NS(=O)(=O)c1ccc2c(c1)NC(=O)CO2 (stereo not given) | 2 | 2 | -0.3% | -2.0 | -2 | -1 | 5%
COc1ccccc1C(=O)NCCC(=O)NCC(c1ccco1)N1CCCC1 (stereo not given) | -8 | 4 | 0.7% | -4.8 | -14 | 7 | .
O=C1CS/C(=N\N=C\c2ccco2)N1c1ccccc1 | -22 | 6 | 2.0% | -7.1 | -3 | -16 | -6%

# Gathered by group, the entries above with a Cl atom (10)
molecule | CtBP-E1A inh | TRPV1 potentiator | PINK1 modulator | D2 agonist | D2 PAM | Six1-Eya2 blk | Sfp inh
CC(CN1CCN(C)CC1)OC(=O)c1ccc(Cl)cc1Cl (stereo not given) | -10 | -10 | -3.4%[38.3 µM] | -1.6 | -17 | -7 | -1%
O=C1/C(=C\Nc2ccc(Cl)cc2)CCN1c1ncccn1 | -13 | -1 | -1.4% | 0.9 | -9 | -7 | 89µM*
O=C(NCc1ccc(F)cc1)c1ccc(CS(=O)Cc2ccccc2Cl)o1 (stereo not given) | 4 | 4 | 2.4% | -12 | -9 | -2 | 13%
CN1CCCN(C(=O)c2ccccc2Cl)CC1 | 7 | ? | 0.0% | -2.5 | -3 | 7 | 15%
O=C1C2CCCN2C(c2cccc(F)c2)N1c1cccc(Cl)c1 (stereo not given) | 0 | . | -0.3% | 3.9 | -3 | 1 | 24%
NS(=O)(=O)c1ccc(CNC(=O)c2cc(-c3cccnc3)nc3ccc(Cl)cc23)cc1 | -6 | 2 | 4.8% | -3.9 | -18 | 2 | -10%
COc1ccccc1C(=O)N/N=C(\C)CC(=O)Nc1ccc(Cl)cn1 | -3 | -9 | 3.8% | -2.7 | -16 | -8 | 18%
CC(=O)c1cccc(N2C(=O)CC(N3CCN(S(=O)(=O)c4ccc(Cl)cc4)CC3)C2=O)c1 (stereo not given) | . | -8 | 1.1% | -1.3 | 3 | 2 | .
CN(Cc1ccco1)C(=O)c1cc2c(s1)-c1ccc(Cl)cc1S(=O)(=O)C2 | . | 3 | -1.4% | -8.5 | -6 | 2 | 15%
Cc1cc(Cl)ccc1NC(=O)c1ccc2c(c1)CCN2S(C)(=O)=O | . | -14 | 2.3% | 7.3 | -2 | 4 | 5%
